Anaer choline gr: blocks anaerobic gram-negative growth on choline; Gram-negative bacterium anaerobic choline minimal medium, absorbance growth; active compounds read low; many inactives read as strong as hits in the columns shown; calls only; AID 1963822; hit rate 0.2% among 55,000;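 active means growth z-score on choline under -2 at 7 or 20 h with little or no fall on glycerol, limits in tiers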;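 further: stock transfer was 300 nL into about 50 µL; the organism is E. coli; final concentration not given here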
Anaer choline gr early: also measured in Anaer choline gr; calls as there; z-score; measured here: choline growth z-score, timepoint 1;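 score of optical density at 7 h as mean of two plates; lower means less growth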
An asterisk follows results filed as active; i = inactive; & = joins results of further samples. This is a subset; count on the stated rates, not on these rows.

molecule | Anaer choline gr | Anaer choline gr early
Cc1cc(C)nc(-n2nc(C)c3c2N(C)C(=O)CC3c2ccc(F)cc2)n1 (stereo not given) | i | -0.66
CCc1nc2sc(C(C)C)nn2c1S(=O)(=O)NCc1cccs1 | i | 0.64
O=C(Nc1ccc(Br)cc1)N1CCC(n2cnc3cccnc32)CC1 | i | -0.43
Cc1nonc1NC(=O)c1ccc(F)cc1 | i | -0.94
CCc1ccccc1NC(=O)N1CCc2nc(-c3ccc(OC)cc3)sc2C1 | i | 0.62
O=C(OCc1ccc(Cl)cc1)c1cnn2c(C(F)(F)F)cc(-c3ccccc3)nc12 | i | 0.67
Cc1ccc(-c2nnc(SCc3cc(=O)n4[nH]c(-c5ccccc5)nc4n3)n2C)cc1 | i | -1.42
CC1CSc2ccc(S(=O)(=O)N3CCCC3)cc2N(CC(=O)N(C)c2ccccc2)C1=O (stereo not given) | i | -0.5
O=S(=O)(c1cc(-c2cc(C(F)(F)F)on2)cs1)N(Cc1ccco1)C1CCCCC1 | i | 2.18
CCOC(=O)C1CCC(CNC(=O)NCCn2nnc3cc(C(=O)N(C)C)ccc32)CC1 (stereo not given) | i | 1
CC1CCN(S(=O)(=O)c2nn(C)cc2C(=O)O)CC1 | i | -0.17
CCOC(=O)c1c(-c2ccc(C)cc2)csc1NC(=O)Cc1coc2c(C)c(C)ccc12 | i | 0.19

5 entries from above, ordered by the number in Anaer choline gr early, low to high.
molecule | Anaer choline gr | Anaer choline gr early
Cc1cc(C)nc(-n2nc(C)c3c2N(C)C(=O)CC3c2ccc(F)cc2)n1 (stereo not given) | i | -0.66
CCOC(=O)c1c(-c2ccc(C)cc2)csc1NC(=O)Cc1coc2c(C)c(C)ccc12 | i | 0.19
CCc1ccccc1NC(=O)N1CCc2nc(-c3ccc(OC)cc3)sc2C1 | i | 0.62
CCc1nc2sc(C(C)C)nn2c1S(=O)(=O)NCc1cccs1 | i | 0.64
O=C(OCc1ccc(Cl)cc1)c1cnn2c(C(F)(F)F)cc(-c3ccccc3)nc12 | i | 0.67

The list continues.
molecule | Anaer choline gr | Anaer choline gr early
CC1CCCN(CC2CCN(S(=O)(=O)Cc3cc(F)cc(F)c3)CC2)C1 (stereo not given) | i | -1.04
COC(=O)C1=CN(C2CC2)c2cc(N3CCc4ccccc4C3)c(F)cc2S1(=O)=O | i | -0.17
O=C(Cn1nc2c3sc(N4CCCCC4)nc3ncn2c1=O)Nc1cc(F)cc(F)c1 | i | -0.56
Cc1cc(C)cc(NC(=O)CCc2nc(CSc3n[nH]c(-c4ccccc4)n3)no2)c1 | i | -0.01
Cc1cccn2c(=O)cc(COc3cccc(NC(=O)Nc4cccc(Cl)c4)c3)nc12 | i | -1.19
CC(C)c1cc(C2CCCN2C(=O)Cn2cc(Cl)cn2)on1 (stereo not given) | i | -0.38
CCN(CC)CC1CCN(c2ncc3ncnc(Nc4ccc(F)c(Cl)c4)c3n2)CC1 | i | -0.36
Cc1ccccc1-c1ncccc1C(=O)N1CCC(C(=O)N2CCN(c3ccccn3)CC2)CC1 | i | 0.71
OCCNCc1ccc(-c2ccccc2F)o1 | i | -1.42
CC(C)Cc1cc(-c2nn3c(-c4ccccn4)nnc3s2)n[nH]1 | i | -0.01
COc1cccc(NC(=O)CSc2nc(-c3ccccc3)no2)c1 | i | 0.12
COc1ccc(NC(=O)CSC2=Nc3ccccc3N=C(c3ccccn3)C2)cc1 | i | 1.39

Continuation.
molecule | Anaer choline gr | Anaer choline gr early
COCCCn1c(SCc2cccc(F)c2)nc2c(-c3ccccc3)cn(C)c2c1=O | i | -1.02
O=C(CSc1ccccc1)Nc1cccc(-c2ccc3ccccc3n2)c1 | i | 1.88
C=Cc1ccc(Cn2nc3n(C(C)C)c(=O)c4ccc(C(=O)NC5CCCC5)cc4n3c2=O)cc1 | i | 0.32
Cc1cc(=O)nc2c3ccccc3n(CC(=O)NCCCN3CCC(Cc4ccccc4)CC3)n12 | i | -1.21
Cc1cc(C)c(NC(=O)C(C)Sc2nc3c(c(=O)[nH]2)CCCC3)c(C)c1 (stereo not given) | i | 0.24
CN(C)S(=O)(=O)c1ccc2c(c1)nc(C(F)(F)F)n2CCC(=O)Nc1ccccc1F | i | 0.18
O=C(CSc1ccnc(=O)[nH]1)Nc1ccccc1 | i | -1.52
CN1CCN(C(=O)c2cc3c(=O)n(C)ccc3n2C)CC1 | i | -0.18
Cc1ccc(-c2nc3c4ccccc4n(CC(=O)c4cc(C)ccc4C)c(=O)n3n2)cc1 | i | -0.62
Cc1nnc(N2CCN(C(=O)Nc3ccc(Cl)cc3)CC2)c2nn(-c3ccccc3)c(C)c12 | i | -1.26
CCCN1C(=O)c2c(C(=O)NCc3ccc(OC)cc3)ncn2CC1(C)C(=O)NCc1ccccc1 (stereo not given) | i | -0.6
O=C(C1CCN(c2cnc(N3CCCC3)nc2)CC1)N1CCOCC1 | i | 0.44

The list goes on:
molecule | Anaer choline gr | Anaer choline gr early
Cc1oc(-c2ccccc2)nc1CN1CCN(C(=O)CN2C(=O)c3ccccc3C2=O)CC1 | i | 0.18
CCCCNC(=O)Cc1c(C)[nH]n(-c2nc(C)c(C)s2)c1=O | i | -0.02
CCC(C)NC(=O)c1sc(C)nc1C (stereo not given) | i | 0.88
CCN(C)C(=O)Oc1cccc([C@H](C)N(C)C)c1 | i | 0.88&0.2
O=C(c1ccoc1)N1CCCCC1CCN1CCOCC1 (stereo not given) | i | -0.88
CCOC(=O)c1sc(NC(=O)CSc2cc(-c3ccccc3)ncn2)nc1C | i | 1.01
CC1CCCN(S(=O)(=O)c2ccc(-c3nnc(C4CCC4)o3)o2)C1 (stereo not given) | i | 0.65
CCC1=NOC(C(=O)N2CCN(CC)CC2)C1 (stereo not given) | i | 0.3
O=C(Nc1ccc2c(c1)OCO2)N1CCN(c2ccc(-c3noc(C4CCCCC4)n3)cc2)CC1 | i | 0.09
CC1(C(=O)NC2CCCC2)Cn2c(ccc2-c2ccccc2)C(=O)N1Cc1ccccc1 (stereo not given) | i | -0.96
Cn1c2ccccc2c2cnn(CC(=O)N3CCN(c4ccc(Cl)cc4)CC3)c(=O)c21 | i | -0.25
CCNC(=O)N1CCC(OCC)CC1 | i | 1.29

New compounds follow.
molecule | Anaer choline gr | Anaer choline gr early
CCOC(=O)c1cc(=O)c2cc(F)ccc2[nH]1 | i | -2.49
COc1ccccc1-c1cc2n(C)c(C)c(CCC(=O)NC3CCCCC3)c(=O)n2n1 | i | 0.18
CCOc1ccc2nc(NS(=O)(=O)c3cc(-c4noc(C)n4)sc3C)sc2c1 | i | 2.73
COc1ccccc1N1C(=O)N(c2ccc(C)cc2)C2CS(=O)(=O)CC21 (stereo not given) | i | 0.45
Cc1cc(NC(=O)c2[nH]c(C)c(S(=O)(=O)N3CCCCC3)c2C)ccc1Br | i | 0.54
CCc1ccc(Nc2ncnc3c2cnn3C)cc1 | i | -0.96
CC1CC(C)CN(C(=O)CN2C(=O)CCCc3ccccc32)C1 (stereo not given) | i | 0.94
Cc1n[nH]c(C)c1C(C)C(=O)Nc1cccc(Cl)c1 (stereo not given) | i | 0.78
CCn1c(=O)c2c(nc3n2CC(C)CN3c2ccc(Br)cc2)n(C)c1=O (stereo not given) | i | 0.74
O=C(NC1CCCCCC1)C1CCN(c2cncnc2N2CCOCC2)CC1 | i | 0.49
Cc1cc(C)n(-c2nc3c(c(=O)n2CC(=O)Nc2ccc4c(c2)OCO4)CCC3)n1 | i | 0.44
CN(C)c1ccc(C(CNC(=O)C2CC2)N2CCN(c3ccccc3)CC2)cc1 (stereo not given) | i | -1.73

Following part.
molecule | Anaer choline gr | Anaer choline gr early
Cc1ccc2c(c1C)-n1cccc1C1(CCN(C(=O)Cc3ccc(Cl)cc3)CC1)N2 | i | -1.12
C=C1CC[C@H](O)C/C1=C/C=C1\CCC[C@]2(C)[C@@H]([C@H](C)CCCC(C)(C)O)CC[C@@H]12 | i | 0.16&0.87
Cn1c(=O)c(=O)[nH]c2cc(-c3noc(-c4ccc(C(C)(C)C)cc4)n3)ccc21 | i | -1
CCCn1c(=O)c2ccc(C(=O)NC(C)C)cc2n2c(=O)n(CC(=O)c3ccccc3)nc12 | i | 1.7
Cc1ccccc1CSc1nc2nc[nH]c2c(=O)[nH]1 | i | 1.05
CCOc1ccccc1NCc1nc2nc(C)cc(C)n2n1 | i | -0.23
CC(C(=O)N1CCCc2ccccc21)n1cnc2onc(-c3ccc(Cl)cc3)c2c1=O (stereo not given) | i | -0.29
CC(C)CCNC(=O)CCCCn1c(=O)c2ccccc2n(CC(=O)Nc2ccccc2Cl)c1=O | i | -0.78
COc1ccc(COc2ccc(=O)n(-c3ccc(C(=O)Nc4ccc(OC)c(OC)c4)cc3)n2)cc1 | i | 1.01
CC(C)c1cc(C2CCCN2Cc2cc(Br)ccc2O)no1 (stereo not given) | i | 2.32
Cc1nc(-c2cc(S(=O)(=O)N3CCC(C)CC3)c(C)s2)sc1C | i | 1.26
Cc1ccc(S(=O)(=O)N2CCCC2C(=O)Nc2ccc(C)cc2C)cc1 (stereo not given) | i | -0.72

Quoted from the listing:
`C=C1CC[C@H](O)C/C1=C/C=C1\CCC[C@]2(C)[C@@H]([C@H](C)CCCC(C)(C)O)CC[C@@H]12` in Anaer choline gr early = 0.16&0.87
`Cc1oc(-c2ccccc2)nc1CN1CCN(C(=O)CN2C(=O)c3ccccc3C2=O)CC1` in Anaer choline gr early = 0.18
`CCOC(=O)c1sc(NC(=O)CSc2cc(-c3ccccc3)ncn2)nc1C` in Anaer choline gr early = 1.01

Entries of single compounds, quoted from the list. Screens in order: Anaer choline gr, Anaer choline gr early
CC(C)CCNC(=O)CCCCn1c(=O)c2ccccc2n(CC(=O)Nc2ccccc2Cl)c1=O as listed: i, -0.78
CC(C)c1cc(C2CCCN2Cc2cc(Br)ccc2O)no1 (stereo not given) as listed: i, 2.32

(next part)
molecule | Anaer choline gr | Anaer choline gr early
COCCCN1CCc2nc(SCc3cccc(Br)c3)[nH]c(=O)c2C1 | i | -0.76
O=C(NCCC1=CCCCC1)C1CCCN(c2ncc(-c3ccc(F)cc3)cn2)C1 (stereo not given) | i | -2
O=C(CCC(=O)N1CCc2cc(S(=O)(=O)N3CCOCC3)ccc21)N1CCOCC1 | i | -0.04
CCN(C(=O)Nc1cc(C)cc(C)c1)c1nc(-c2ccc(Br)cc2)cs1 | i | 0.35
O=C(NC1CCCCC1)N1CCN(C(=O)c2nsc3ccccc23)CC1 | i | 0.74
Cc1ccc2nc(CSc3ccccc3NC(=O)CN3C(=O)c4ccccc4C3=O)cc(=O)n2c1 | i | -1.38
Cn1nc(COCc2ccc(F)cc2Cl)c2c1CCN(S(=O)(=O)Cc1ccccc1)C2 | i | -0.63
O=C(NCc1noc(C2CCCO2)n1)C1CCCCC1 (stereo not given) | i | 0.42
CCn1c(CCc2ccc(NS(=O)(=O)CC)cc2)nc2ccccc21 | i | -0.04
CCOC(=O)c1nc2cc(C)c(C)cc2nc1NCc1ccccn1 | i | 1.22
Cc1ccc(-c2nn3c(=O)cc(CN4CCN(C(=O)Nc5ccc(C)c(C)c5)CC4)nc3s2)cc1 | i | -0.41
Cc1nc2c(OCc3ccccc3)cccn2c1CC#N | i | 0.61

Following part:
molecule | Anaer choline gr | Anaer choline gr early
Cc1ccc(CN(CC(=O)N2CCN(c3ccccc3)CC2)S(=O)(=O)c2ccc(C)cc2)cc1 | i | 0.65
Cc1nc2sccn2c(=O)c1S(=O)(=O)Nc1ccc(N2CCC(C)CC2)cc1 | i | 0.36
Cc1nc(-c2csc(S(=O)(=O)N3CCCC(C(=O)NC4CCCC4)C3)c2)no1 (stereo not given) | i | -0.57
CCOC(=O)C1CCN(C(=O)C2CCCN(S(=O)(=O)c3cc(-c4noc(C)n4)sc3C)C2)CC1 (stereo not given) | i | -0.11
CCCn1c(=O)oc2cc(NS(=O)(=O)c3ccc4c(c3)c(=O)n(C)c(=O)n4C)ccc21 | i | -1.59
COc1ccc(CCN2CC(=O)N(c3ccc(C)c(C)c3)[C@@H]3CS(=O)(=O)C[C@@H]32)cc1OC | i | -2.15
Cc1ccc(-c2noc(C3CC3)n2)cc1S(=O)(=O)NC(C)C(=O)Nc1nccs1 (stereo not given) | i | 1.93
NC(=O)Cn1nc2n(Cc3cccs3)c(=O)c3sccc3n2c1=O | i | 0.16
CCOc1ccc(NC(=O)CN(C)S(=O)(=O)c2ccc3c(c2)C(=O)NCC(=O)N3)cc1 | i | 0.62
O=C(C1CCN(S(=O)(=O)c2ccc(-c3noc(C4CC4)n3)cc2)CC1)N1CCCC1 | i | -1.16
Cc1cccc(OCc2cc(=O)n3c(C)csc3n2)c1 | i | 1.03
COc1ccc(-c2ccc(N3CCN(C)CC3)nn2)cc1S(=O)(=O)N1CCOCC1 | i | -2.01

(more compounds)
molecule | Anaer choline gr | Anaer choline gr early
Cc1cc(C)cc(-c2cc3nc(C)cc(N4CCC(C(=O)NC5CCCCC5)CC4)n3n2)c1 | i | -0.62
O=C1CC(c2nc(Cn3cnc(S(=O)(=O)N4CCCCC4)c3)no2)CN1c1ccccc1 (stereo not given) | i | 0.19
Cc1ccc(-n2nc(N3CCCN(C(=O)CCC(=O)N4c5ccccc5CC4C)CC3)ccc2=O)cc1 (stereo not given) | i | -1.07
CCCn1c(CCc2ccc(NC(=O)C3CCC3)cc2)nc2ccccc21 | i | -0.19
COc1ccc(-c2noc(-c3nn(-c4ccc(OC)cc4)ccc3=O)n2)cc1 | i | 1.23
Cc1cccc(-c2nc3ccccc3c3nnc(SCC(=O)NC4CCCC4)n23)c1 | i | -0.17
O=C(Nc1ccccc1C(=O)c1ccccc1)c1cnn(-c2ccccc2)c1 | i | 1.19
Cc1c(C(=O)NCc2ccccc2)c(C)n2cnn(CC(=O)NC3CCCCC3)c(=O)c12 | i | 0.35
CC(C)c1ccc(CNC(=O)C2CCCN(c3cc(=O)n(C)c(=O)n3C)C2)cc1 (stereo not given) | i | -0.18
O=C(NCCn1c(-c2ccccc2)nc2cccnc21)c1cccc(Cl)c1 | i | -0.44
COc1ccc(NC(=O)Cn2c(=O)c3cc(Cl)ccc3n3nncc23)cc1 | i | -0.23
O=C(CCn1c(C2CCCCC2)nc2ccccc21)N1CCN(Cc2noc3ccccc23)CC1 | i | -0.47
CCCCCNC(=O)c1nnn(-c2ccccc2)c1-c1ccncc1 | i | 0.59
O=C(NCc1ccccc1Cl)C(=O)NCC(c1cccnc1)N1CCc2ccccc2C1 (stereo not given) | i | 0.11

Source: PubChem
